# AF4-AF9 inh: MLL-AF4/AF9 protein interaction inhibition. P42568. AlphaScreen, biotin-AF4 peptide binding to FLAG-AF9. inhibition, % at 10 µM. hit rate 0.47% among 350,000;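 active means every replicate reaching a set inhibition limit, whatever the replicate mean, cut at about 25% in these data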;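 further: 0% = plate neutral control median and 100% = total signal loss; the record names both 10 and 1 µM as test concentration; the first replicate is given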
# Target sequence (P42568 whole entry, looked up): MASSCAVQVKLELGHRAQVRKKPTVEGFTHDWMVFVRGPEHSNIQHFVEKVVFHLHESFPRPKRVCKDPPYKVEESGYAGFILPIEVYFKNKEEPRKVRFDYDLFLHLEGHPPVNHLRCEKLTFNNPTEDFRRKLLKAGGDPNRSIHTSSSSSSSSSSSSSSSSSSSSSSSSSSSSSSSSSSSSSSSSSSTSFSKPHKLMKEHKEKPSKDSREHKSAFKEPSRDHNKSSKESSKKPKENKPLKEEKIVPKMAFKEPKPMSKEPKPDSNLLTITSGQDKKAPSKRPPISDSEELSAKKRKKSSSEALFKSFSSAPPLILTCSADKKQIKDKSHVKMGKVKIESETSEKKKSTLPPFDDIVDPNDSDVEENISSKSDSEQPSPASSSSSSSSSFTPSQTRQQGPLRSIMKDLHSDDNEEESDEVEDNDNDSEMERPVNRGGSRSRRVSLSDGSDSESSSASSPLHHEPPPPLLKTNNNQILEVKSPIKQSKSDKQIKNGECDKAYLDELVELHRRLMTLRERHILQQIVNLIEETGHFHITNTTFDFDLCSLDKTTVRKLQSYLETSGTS
# The depositor's hits bear a star; & = joins results of further samples. An excerpt, so the mix of outcomes need not match the whole.
SMILES,AF4-AF9 inh
COc1ccc(NC(=O)N(C)C[C@H]2Oc3c(NC(=O)c4ccc(-c5nccs5)cc4)cccc3C(=O)N([C@@H](C)CO)C[C@@H]2C)cc1,-1.7
O=C(NCC[C@@H]1CC[C@H](NC(=O)c2cccnc2)[C@@H](CO)O1)Nc1ccc(C(F)(F)F)cc1,11
C[C@H]1CN([C@@H](C)CO)C(=O)c2cccc(NC(=O)c3ccncc3)c2O[C@@H]1CN(C)Cc1ccc(Oc2ccccc2)cc1,8.0
COc1ccc(-c2nn(-c3ccccc3)cc2CNC[C@H]2O[C@@H](n3ccc(=O)[nH]c3=O)[C@H](O)[C@@H]2O)cc1,0.6
CO[C@H]1CN(C)C(=O)c2cc(NC(=O)Cc3ccccc3)ccc2OC[C@H](C)N(C(C)=O)C[C@H]1C,-4.0
CC1CCN(C(=O)c2[nH]cnc2C(=O)N(C)CCO)CC1,-0.9
COc1ccccc1-c1cnc2c(c1)C(=O)N([C@@H](C)CO)C[C@@H](C)[C@H](CN(C)Cc1ccc(F)cc1)O2,6.6
COc1ccc2c3c(n(C)c2c1)[C@@H](CO)N(C(=O)Nc1ccccc1F)CC31CCN(C(=O)c2ccccc2F)CC1,0.5
COc1ccc(C#Cc2ccc([C@@H]3[C@@H](CO)N4CCCCN(Cc5ccccc5F)C[C@@H]34)cc2)cc1,2.0
CCCCNC(=O)C(NC(=O)c1ccc2c(c1)OCO2)C(=O)c1ccccc1 (stereo not given),-0.7
COc1ccc(-c2c(-c3ccccc3OC)sc3ccccc23)cc1F,-1.1
COC(=O)C1=C(C)N(C)C(=NCc2cc(OC)c(OC)c(OC)c2)NC1c1ccc(C(F)(F)F)cc1 (stereo not given),-3.2
CCCCCCCCN1C(=O)[C@H](CC(=O)N2CCN(C(=O)C3CC3)CC2)C[C@@]2(C(=O)OCC)CCCC=C12,0.6
C[C@H]1CN([C@@H](C)CO)C(=O)c2cc(-c3ccc(F)cc3)cnc2O[C@H]1CN(C)CC1CCCCC1,1.8
COCC#Cc1cnc2c(c1)C(=O)N([C@H](C)CO)C[C@@H](C)[C@@H](CN(C)C(=O)Cc1cccnc1)O2,-1.7
C[C@@H]1CN([C@H](C)CO)C(=O)c2cccc(NC(=O)c3cnccn3)c2O[C@@H]1CN(C)C(=O)Nc1ccccc1,-1.3
Cc1noc(C)c1NC(=O)N[C@H]1CC[C@@H](CC(=O)Nc2ccccc2)O[C@H]1CO,-0.5
C[C@H](CO)N1C[C@H](C)[C@H](CN(C)C(=O)C2CCCCC2)Oc2ncc(C#Cc3cccc(F)c3)cc2C1=O,3.0
COc1ccc(S(=O)(=O)N2CC3(CN(Cc4ccccc4OC)[C@H](CO)c4[nH]c5cc(OC)ccc5c43)C2)cc1,-0.8
CCOC(=O)C(=C1Nc2ccccc2N1)n1c(-c2ccco2)nc2ccccc21,-6.3
Cc1cccc(S(=O)(=O)N2CCCCN3[C@H](CO)[C@@H](c4ccc(-c5cccnc5)cc4)[C@@H]3C2)c1,-4.2
OC[C@H]1[C@@H](c2ccccc2)C2(CN(CC3CC3)C2)N1Cc1nccs1,3.3
CN1C(=O)c2cc(NS(=O)(=O)c3ccc(F)cc3)ccc2OC[C@H]2O[C@H](CC(=O)NCC(F)(F)F)CC[C@@H]21,-0.3
CCC(CC)C(=O)N(C)c1c(C)nc2c(OCC(=O)C(C)(C)C)cccn12,-0.8
COc1ccc(CN(C)C[C@H]2OCCCC[C@@H](C)Oc3ccc(NC(=O)Nc4cccc5ccccc45)cc3C(=O)N([C@@H](C)CO)C[C@@H]2C)cc1,8.1
# (continued)
SMILES,AF4-AF9 inh
CC(C)NC(=O)N(C)C[C@@H]1Oc2ncc(C#CCc3ccccc3)cc2C(=O)N([C@H](C)CO)C[C@@H]1C,-3.6
CCCNC(=O)N1C[C@@H](C)[C@@H](OC)CN(C)C(=O)c2ccc(NC(=O)C3CCC3)cc2OC[C@@H]1C,-1.1
COc1ccc(S(=O)(=O)N(C)C[C@H]2OCCCC[C@@H](C)Oc3ccc(NS(=O)(=O)c4cn(C)cn4)cc3C(=O)N([C@H](C)CO)C[C@H]2C)cc1,-1.6
C[C@@H]1CN([C@H](C)CO)C(=O)Cc2cc(NC(=O)Cc3ccccc3)ccc2O[C@H]1CN(C)C(=O)Nc1ccc2c(c1)OCO2,-1.4
CN1CCN(C(=O)C[C@@H]2CC[C@@H]3[C@H](COC[C@@H](O)CN3C(=O)c3ccccc3F)O2)CC1,-4.1
Cc1ccc(S(=O)(=O)Nc2ccc3c(c2)C(=O)N([C@@H](C)CO)C[C@@H](C)[C@H](CN(C)C(=O)C2CCCCC2)OCCCC[C@H](C)O3)cc1,-4.1
COCC(=O)N(C)C[C@H]1Oc2ncc(/C=C/c3ccccc3)cc2C(=O)N([C@@H](C)CO)C[C@@H]1C,-3.4
COC1OC(COCc2ccccc2)C2OC(C)(C)OC2C1O (stereo not given),0.8
O=C(CC[C@H]1O[C@@H](n2ccc(=O)[nH]c2=O)[C@H](O)[C@@H]1O)N[C@H](Cc1ccccc1)C(=O)NCc1ccccc1,-1.1
CCCNC(=O)C1(C)CCCN(C(=O)c2c(F)ccc(C)c2F)C1 (stereo not given),0.4
COc1ccc2c3c(n(C)c2c1)[C@H](CO)N(S(=O)(=O)c1ccc(C)cc1)CC31CN(C(=O)c2ccccn2)C1,5.5
C[C@H]1CN([C@@H](C)CO)S(=O)(=O)c2ccc(C#Cc3cccnc3)cc2O[C@H]1CN(C)C(=O)Nc1ccc2c(c1)OCO2,5.7
COc1ccccc1S(=O)(=O)N(C)C[C@H]1OCc2ccccc2-c2c(n(C)c3ccccc23)C(=O)N([C@@H](C)CO)C[C@H]1C,6.3
CC(=O)Nc1ccc2c(c1)C(=O)N(C)[C@H]1CC[C@@H](CC(=O)NCc3ccccc3)O[C@@H]1CO2,1.0
CCCC#Cc1cnc2c(c1)C(=O)N([C@@H](C)CO)C[C@@H](C)[C@@H](CN(C)C(=O)c1cccnc1)O2,0.2
C[C@@H]1CN([C@@H](C)CO)S(=O)(=O)c2ccc(C#CC(C)(C)O)cc2O[C@H]1CN(C)C(=O)C1CCC1,-3.2
C[C@H](CO)N1C[C@H](C)[C@H](CN(C)S(=O)(=O)c2ccc(F)cc2)Oc2ccc(NS(C)(=O)=O)cc2C1=O,-2.1
C[C@@H]1CCCCO[C@@H](CN(C)C(=O)Nc2ccc3c(c2)OCO3)[C@H](C)CN([C@H](C)CO)C(=O)c2cc(NS(=O)(=O)c3cn(C)cn3)ccc2O1,-3.2
C[C@H](CO)N1C[C@H](C)[C@H](CN(C)S(=O)(=O)c2ccc(F)cc2)Oc2ncc(-c3cc4ccccc4o3)cc2C1=O,2.6
Cc1noc(C)c1NC(=O)Nc1ccc2c(c1)CC(=O)N([C@@H](C)CO)C[C@H](C)[C@H](CN(C)S(=O)(=O)c1c(C)noc1C)O2,-1.5
CO[C@@H]1CN(C)C(=O)c2cc(NC(=O)C3CC3)ccc2OC[C@@H](C)N(C(=O)c2cccnc2)C[C@@H]1C,7.2
C[C@H]1CN([C@@H](C)CO)C(=O)c2cc(NS(=O)(=O)c3cccs3)ccc2O[C@@H]1CN(C)Cc1ccc(-c2ccccc2)cc1,5.3
COc1cccc(-c2cnc3c(c2)C(=O)N([C@H](C)CO)C[C@H](C)[C@H](CN(C)C(C)=O)O3)c1,-2.3
C[C@H](CO)N1C[C@H](C)[C@H](CN(C)S(=O)(=O)c2cccc(F)c2)Oc2ncc(C#CC(C)(C)O)cc2C1=O,-1.8
COCCNC(=O)C[C@@H]1CC[C@@H]2[C@H](COc3ccc(NC(=O)c4cnccn4)cc3C(=O)N2C)O1,-2.5

# Exported with values ahead of the structure: entries from further up.
AF4-AF9 inh	Structure
-2.3	COc1cccc(-c2cnc3c(c2)C(=O)N([C@H](C)CO)C[C@H](C)[C@H](CN(C)C(C)=O)O3)c1
-1.8	C[C@H](CO)N1C[C@H](C)[C@H](CN(C)S(=O)(=O)c2cccc(F)c2)Oc2ncc(C#CC(C)(C)O)cc2C1=O

# Next section
SMILES,AF4-AF9 inh
COc1cccc(C(=O)Nc2ccc3c(c2)C(=O)N(C)C[C@H](OC)[C@@H](C)CN(CCc2ccccc2)[C@@H](C)CO3)c1,0.1
COc1cccc2c3cccc(OC)c3c3[nH]cnc3c12,-0.4
C[C@@H]1CCCCO[C@H](CN(C)S(=O)(=O)c2cn(C)cn2)[C@@H](C)CN([C@@H](C)CO)C(=O)c2cc(NS(C)(=O)=O)ccc2O1,-12
C[C@H]1CN([C@@H](C)CO)C(=O)c2ccccc2-c2ccccc2CO[C@H]1CN(C)S(=O)(=O)c1ccc(Cl)cc1,6.5
O=C(C1CCCCC1)N1CC2(C1)[C@H](c1ccccc1)[C@H](CO)N2CCC(F)(F)F,-6.9
C[C@H](CO)N1C[C@H](C)[C@H](CN(C)S(=O)(=O)c2cccc(F)c2)Oc2ncc(Br)cc2C1=O,-4.0&-2.1
C[C@@H]1CCCCO[C@@H](CN(C)C(=O)NC2CCCCC2)[C@@H](C)CN([C@@H](C)CO)C(=O)c2cc(NC(=O)Nc3ccc4c(c3)OCO4)ccc2O1,3.9
CC1(C(=O)NS(=O)(=O)c2cccc(C#N)c2)CCN1C(=O)C1(c2ccc(Cl)cc2)CC1 (stereo not given),-3.8
Cc1ccc(-c2cnc3c(c2)C(=O)N([C@@H](C)CO)C[C@@H](C)[C@@H](CN(C)C(=O)c2ccncc2)O3)cc1,-8.9
C[C@H]1CN([C@@H](C)CO)C(=O)Cc2cc(NC(=O)Nc3ccc4c(c3)OCO4)ccc2O[C@H]1CN(C)S(C)(=O)=O,1.2
C[C@H]1CCCCO[C@H](CN(C)S(=O)(=O)c2cn(C)cn2)[C@@H](C)CN([C@@H](C)CO)C(=O)c2cc(NS(C)(=O)=O)ccc2O1,-13
CNc1cc(-c2cccc(N(C)C)c2)ncn1,2.7
C[C@H](CO)N1C[C@H](C)[C@@H](CN(C)Cc2ccc(-c3ccccc3)cc2)Oc2ccc(NS(=O)(=O)c3ccccc3)cc2CC1=O,1.0
Cc1ccc(S(=O)(=O)N(C)C[C@H]2Oc3c(NC(=O)C4CCCCC4)cccc3C(=O)N([C@H](C)CO)C[C@H]2C)cc1,-11
Cc1ccc(S(=O)(=O)Nc2ccc3c(c2)C(=O)N([C@@H](C)CO)C[C@H](C)[C@@H](CN(C)Cc2ccc(Cl)c(Cl)c2)OCCCC[C@@H](C)O3)cc1,5.8
C[C@H](CO)N1C[C@H](C)[C@@H](CN(C)C(=O)Cc2cccnc2)Oc2cc(C3=CCCCC3)ccc2S1(=O)=O,5.4
Cc1ccccc1CNC(=O)c1[nH]c(C(F)(F)F)nc1-c1ccccc1,-1.1
C[C@@H]1CN([C@H](C)CO)C(=O)c2cc(-c3cncnc3)cnc2O[C@@H]1CN(C)C(=O)c1ccccc1F,-0.3
CNC[C@@H]1OCCCC[C@H](C)Oc2ccc(NC(=O)Nc3ccccc3)cc2C(=O)N([C@H](C)CO)C[C@H]1C,-1.1
C[C@@H]1CN([C@H](C)CO)C(=O)Cc2cc(NS(C)(=O)=O)ccc2O[C@H]1CN(C)Cc1ccc(-c2ccccc2)cc1,4.7
CC(C)C#Cc1ccc([C@@H]2[C@@H](CO)N3C(=O)CN(C(=O)NC4CCCCC4)C[C@@H]23)cc1,4.6
COc1ccc2c3c(n(C)c2c1)[C@@H](CO)N(C(=O)c1cnccn1)CC31CN(C)C1,5.9
Cc1ccc(S(=O)(=O)N(C)C[C@H]2Oc3ccc(NC(=O)C4CC4)cc3C(=O)N([C@H](C)CO)C[C@H]2C)cc1,-0.8
C[C@H]1CN([C@@H](C)CO)C(=O)c2cc(-c3ccccc3)cnc2O[C@@H]1CN(C)C(=O)Nc1ccccc1F,-15
C[C@H](CO)N1C[C@H](C)[C@@H](CN(C)Cc2ccc(Oc3ccccc3)cc2)Oc2ccc(NC(=O)C3CCCCC3)cc2CC1=O,1.5

# Entries shown so far that contain a Cl atom:
SMILES,AF4-AF9 inh
C[C@H]1CN([C@@H](C)CO)C(=O)c2ccccc2-c2ccccc2CO[C@H]1CN(C)S(=O)(=O)c1ccc(Cl)cc1,6.5
CC1(C(=O)NS(=O)(=O)c2cccc(C#N)c2)CCN1C(=O)C1(c2ccc(Cl)cc2)CC1 (stereo not given),-3.8
Cc1ccc(S(=O)(=O)Nc2ccc3c(c2)C(=O)N([C@@H](C)CO)C[C@H](C)[C@@H](CN(C)Cc2ccc(Cl)c(Cl)c2)OCCCC[C@@H](C)O3)cc1,5.8

# (next part)
SMILES,AF4-AF9 inh
C[C@H]1CN([C@@H](C)CO)C(=O)c2cc(NC(=O)Nc3ccc4c(c3)OCO4)ccc2O[C@@H]1CN(C)Cc1ccc(C(=O)O)cc1,-0.6
C[C@@H]1CN([C@@H](C)CO)C(=O)Cc2cc(NC(=O)C3CC3)ccc2O[C@H]1CN(C)Cc1ccc(Oc2ccccc2)cc1,15
C[C@H](CO)N1C[C@H](C)[C@@H](CN(C)Cc2ccc(C(=O)O)cc2)Oc2ccc(NS(=O)(=O)c3ccccc3)cc2C1=O,-0.9
O=C(Nc1ccccc1F)N1C[C@H]2[C@@H](c3ccccc31)[C@@H](CO)N2C(=O)C1CC1,-1.4
C[C@@H]1CN([C@H](C)CO)C(=O)c2cc(NC(=O)CCN3CCOCC3)ccc2O[C@H]1CN(C)S(=O)(=O)c1cn(C)cn1,-0.9
CCCCN1CC(COCc2ccccc2)Oc2cccc(N3CCCCC3)c2S1(=O)=O (stereo not given),1.9
CO[C@@H]1CN(C)C(=O)c2cc(NC(=O)C3CCCC3)ccc2OC[C@H](C)NC[C@H]1C,-2.0
O=C(Nc1ccc(-c2ccccc2)cc1)[C@H]1[C@H](CO)[C@H]2Cn3c(cccc3=O)[C@@H]1N2Cc1ccncc1,0.7

# Look-ups from the entries so far:
# Entry of `C[C@@H]1CN([C@H](C)CO)C(=O)c2cc(NC(=O)CCN3CCOCC3)ccc2O[C@H]1CN(C)S(=O)(=O)c1cn(C)cn1` under AF4-AF9 inh: -0.9
# Entry of `C[C@H](CO)N1C[C@H](C)[C@@H](CN(C)Cc2ccc(C(=O)O)cc2)Oc2ccc(NS(=O)(=O)c3ccccc3)cc2C1=O` under AF4-AF9 inh: -0.9

# Bioassay records as filed in PubChem.
